GIRK2 act = opens human GIRK2 potassium channels | P48051 | HEK293-GIRK2 thallium flux, Thallos fluorescence | calls only for hits at 25 µM | 0.05% of 63,000 active | AID 1259325;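 active = among the strongest 0.2% of first-round signals and kept after retests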;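 also: first round at about 10 µM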
Target sequence (P48051 whole entry, looked up): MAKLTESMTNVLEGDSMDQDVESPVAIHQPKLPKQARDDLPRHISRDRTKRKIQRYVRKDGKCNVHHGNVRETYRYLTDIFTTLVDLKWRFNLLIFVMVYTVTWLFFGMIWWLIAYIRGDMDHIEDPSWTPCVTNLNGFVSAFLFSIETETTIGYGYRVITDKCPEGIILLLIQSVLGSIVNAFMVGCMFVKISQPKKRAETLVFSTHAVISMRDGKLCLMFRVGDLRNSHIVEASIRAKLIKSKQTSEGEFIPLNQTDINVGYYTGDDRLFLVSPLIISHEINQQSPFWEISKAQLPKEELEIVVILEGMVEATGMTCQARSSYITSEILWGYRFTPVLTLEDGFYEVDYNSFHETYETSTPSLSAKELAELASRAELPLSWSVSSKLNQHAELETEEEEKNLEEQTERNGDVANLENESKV
Calls only; i = inactive. Only part of the results is shown, so the mix of outcomes need not match the whole.

cpd	GIRK2 act	structure
1	i	Cc1ccc(C)c(Cn2c(C3CC(=O)N(c4ccccc4)C3)nc3ccccc32)c1 (stereo not given)
2	i	CCn1c(NC(=O)c2ccco2)c(-c2ccc(OC)cc2)c(=O)c2ccccc21
3	i	CC(C)(C)c1ccc(C(=O)Nc2ccc(-n3nnc(C(=O)NCC(F)(F)F)n3)cc2)cc1
4	i	COC(=O)c1ccccc1NC(=O)CSc1nccn2nc(-c3ccc(OC)cc3)cc12
5	i	O=C(Nc1ccccc1)NC1CCCC(OC(=O)Nc2ccccc2)C1 (stereo not given)
6	i	O=C(c1ccccc1C(F)(F)F)N1CC(c2nc(-c3cnccn3)no2)C1
7	i	CC(C(=O)NCCn1nc(-c2cccs2)ccc1=O)n1nc(-c2ccccc2)ccc1=O (stereo not given)
8	i	O=C(NCC(Cc1cccc(F)c1)N1CCNC1=O)c1cccs1 (stereo not given)
9	i	CCCCN(C)Cc1cc(=O)oc2ccc3ccccc3c12
10	i	O=C(Cn1nc2c3sccc3ncn2c1=O)Nc1ccc(Br)cc1
11	i	Cc1nn(C)cc1S(=O)(=O)Nc1ccc(F)c(F)c1
12	i	O=C(c1ccsc1)N1CCC2(CC1)OCCS2
13	i	COCCNC(=O)Nc1nnc(-c2cc(C)oc2C)o1
14	i	Cc1ccc(NC(=O)COc2ccc(Cl)cc2Cl)cc1N1CCCC1=O
15	i	COCCn1c(=O)c2c(nc(-n3nc(C)cc3C)n2CCc2ccccc2)n(C)c1=O
16	i	O=C(c1ccc2ccccc2c1)N1CCN(c2ncnc3c2nnn3-c2ccc(Cl)cc2)CC1
17	i	Cn1c(CN2CCN(C(=O)c3cc(-c4ccccc4)on3)CC2)nc2ccccc21
18	i	COc1ccc(OCc2noc(CNC(=O)CSC3CCCC3)n2)cc1
19	i	O=C(c1cn(CC(O)c2ccccc2)nn1)N1CCN(c2ccccn2)CC1 (stereo not given)
20	i	COCC(C)NC(=O)C(=O)Nc1ccc(OC)c(Cl)c1 (stereo not given)
21	i	CSc1cccc(NC(=O)CN(C)c2nc3c(F)cccc3s2)c1
22	i	Cc1cc(C)n(CCNC(=O)C(=O)Nc2cccc(N3CCCC3=O)c2)n1
23	i	CCCc1nnsc1C(=O)NCc1nn(C2CCCC2)c(=O)c2ccccc12
24	i	COCCNC(=O)N1CCC(CSc2nccn2C)CC1
25	i	O=C(Cn1nc(C(=O)N2CCOCC2)cc1-c1cccs1)N1CCc2ccccc2C1

By substructure: those above containing a furan ring, fused or not (2)
cpd	GIRK2 act	structure
2	i	CCn1c(NC(=O)c2ccco2)c(-c2ccc(OC)cc2)c(=O)c2ccccc21
13	i	COCCNC(=O)Nc1nnc(-c2cc(C)oc2C)o1

Next section.
cpd	GIRK2 act	structure
26	i	COc1cc(/C=C/c2ccncc2)ccc1OC(=O)c1ccc(S(=O)(=O)N2CCCC2)cc1
27	i	Cc1cc(OCC(=O)NCc2ccco2)nc(N2CCCCCC2)n1
28	i	O=C(Cc1c(F)cccc1Cl)Nc1nnc(C2CC(=O)N(c3ccccc3)C2)o1 (stereo not given)
29	i	Cc1ccc(Cl)cc1S(=O)(=O)NC1CC(=O)N(C2CC2)C1 (stereo not given)
30	i	O=c1c2nnn(Cc3ccccc3)c2ncn1Cc1nc(-c2ccc(OCc3ccccc3)cc2)no1
31	i	O=C(O)Cc1c(Br)oc2ccc3ccccc3c12
32	i	CCOc1cc(/C=C2/SC(=S)N(c3ccc4ccccc4c3)C2=O)ccc1O
33	i	COC(=O)c1ccc(C(=O)N2CCCC(c3nnc(C(F)(F)F)o3)C2)cc1 (stereo not given)
34	i	O=C(NCCC(O)c1ccccc1)C(=O)NCc1ccc2c(c1)OCO2 (stereo not given)
35	i	O=C(NCC(O)c1ccoc1)C1(c2ccc(F)cc2)CC1 (stereo not given)
36	i	Cc1cc(C(=O)N2CCOCC2CO)no1 (stereo not given)
37	i	CC(C)CNC(=O)Cc1ccc(-n2c(=O)c3ccccc3n(Cc3cccc(F)c3)c2=O)cc1
38	i	CC(C)(C)Cc1nnc(C2CCCN(C(=O)NC3CCCCC3)C2)o1 (stereo not given)
39	i	CCCS(=O)(=O)N1CCN=C1SCc1ccc(Br)cc1
40	i	CC(=O)Nc1ccc(S(=O)(=O)N2CCN(c3cc(C)cc(C)c3)CC2)cc1
41	i	O=C(Cn1c(=O)nc(-c2ccccc2)c2cc(Cl)ccc21)Nc1ccccc1
42	i	CCOc1ccc(-c2cc3c(=O)n(CC(=O)NCCc4ccccc4)ncn3n2)cc1
43	i	Cc1ccc(-n2ncc(C(=O)N3CCC4(CC3)OCCO4)c2-n2cccc2)cc1Cl
44	i	CCSc1ccccc1C(=O)Nc1cc(C2CC2)nn1-c1nc(C(C)C)cc(=O)[nH]1
45	i	Cc1cc(SCC(=O)c2cccs2)n2nc(C)c(-c3ccccc3)c2n1
46	i	CC(C)C(NC(=O)c1ccc(Br)o1)c1nc2ccccc2[nH]1 (stereo not given)
47	i	CN[C@H](C#Cc1c(F)ccc2c1/C(=C/c1[nH]ccc1OC)C(=O)N2)CO
48	i	COc1cn2c(cc1=O)C(=O)N(CCNC(=O)c1c(F)cccc1Cl)CC2
49	i	CCSc1nnc(NC(=O)c2coc(NC(=O)c3cc(C)oc3C)n2)s1
50	i	C=CCn1c(=N)c(S(=O)(=O)c2ccc(C)c(C)c2)cc2c(=O)n3cccc(C)c3nc21

Reprinted at random: 5 compounds from above
cpd	GIRK2 act	structure
40	i	CC(=O)Nc1ccc(S(=O)(=O)N2CCN(c3cc(C)cc(C)c3)CC2)cc1
48	i	COc1cn2c(cc1=O)C(=O)N(CCNC(=O)c1c(F)cccc1Cl)CC2
41	i	O=C(Cn1c(=O)nc(-c2ccccc2)c2cc(Cl)ccc21)Nc1ccccc1
35	i	O=C(NCC(O)c1ccoc1)C1(c2ccc(F)cc2)CC1 (stereo not given)
45	i	Cc1cc(SCC(=O)c2cccs2)n2nc(C)c(-c3ccccc3)c2n1

Next records
cpd	GIRK2 act	structure
51	i	Cn1c(=O)c2c(nc3n(CCN4CCCCC4)c(C(C)(C)C)cn23)n(C)c1=O
52	i	C[C@H]1[C@H](C)CC[C@]2(C(=O)O)CC[C@]3(C(=O)O)C(=CCC4[C@@]5(C)CC[C@H](O[C@@H]6O[C@H](C)[C@@H](O)[C@H](O)[C@H]6O)C(C)(C)C5CC[C@]43C)[C@H]12 (stereo not given in full)
53	i	Cc1nc(NCCNC(=O)c2ccco2)cc(Nc2ccccn2)n1
54	i	O=C(Nc1cc(N2CCCC2)ncn1)C1CCN(c2ccc(-c3ccccc3)nn2)CC1
55	i	COc1cc(C2CC(=O)N(c3ccccc3)C(=Nc3ccccc3)S2)cc(OC)c1OC (stereo not given)
56	i	COc1ccc(OC)c(-c2cc(N)c(=O)n(Cc3ccncc3)n2)c1
57	i	COCCN(Cc1ccoc1)S(=O)(=O)c1ccc(OC)cc1C
58	i	CCOc1ccc(CC(=O)Nc2ccc(-n3nnc(C(=O)N(C)C)n3)cc2)cc1
59	i	O=C(Cc1noc2ccccc12)N1CC(Oc2nc3c(Cl)cccc3s2)C1
60	i	O=C(c1cc(-c2ccc(F)cc2)c[nH]1)N1CCCC1
61	i	Cc1ccc(C)c(N2CCN(CCCNC(=O)CCc3nnc4n(CCc5ccccc5)c(=O)c5ccccc5n34)CC2)c1
62	i	O=C(Cc1ccc2c(c1)OCO2)N1CCC(Oc2nc3ccccc3s2)CC1
63	i	Cc1noc(CNS(=O)(=O)c2cc(C)c(Cl)cc2Cl)n1
64	i	Cc1ccc(C)c(N2CCN(C(=O)c3cn(-c4cccc(F)c4)nn3)CC2)c1
65	i	O=C(NC1CCCC1)c1cc(=O)c(OCc2ccc(F)cc2)co1
66	i	COc1ccccc1C1(CNC(=O)c2c(F)cccc2F)CCOCC1
67	i	COc1cc(NC(=O)Nc2nc3c(OC)ccc(C)c3s2)cc(OC)c1OC
68	i	CCNC(=O)NNC(=O)NC12CC3CC(CC(C3)C1)C2
69	i	COc1ccc(NC(=O)C23CC4CC(C2)CC(C(=O)Nc2ccc(OC)cc2OC)(C4)C3)c(OC)c1
70	i	COCCCNC(=O)C1CSCCC(=O)N1 (stereo not given)
71	i	COc1ccc(Oc2c(C)oc3cc(OC(=O)c4ccco4)ccc3c2=O)cc1
72	i	Cc1ccc(-c2nnn(CC(=O)Nc3nccs3)n2)cc1
73	i	CC(C)N(C(=O)Cn1c(CN2CCCCCC2)nc2ccccc21)C(C)C
74	i	COc1ccc(Cl)cc1C(=O)N1CC(c2nc(-c3ncccn3)no2)C1
75	i	Cc1ccc(-n2nnnc2CN2CCN(C(=O)Nc3ccc(Cl)c(Cl)c3)CC2)cc1

From no. 74 up to 75, copied from above:
cpd	GIRK2 act	structure
74	i	COc1ccc(Cl)cc1C(=O)N1CC(c2nc(-c3ncccn3)no2)C1
75	i	Cc1ccc(-n2nnnc2CN2CCN(C(=O)Nc3ccc(Cl)c(Cl)c3)CC2)cc1

Next part.
cpd	GIRK2 act	structure
76	i	Cc1ccc(N2CCCC(C(=O)Nc3ccc(Br)cc3F)C2)nn1 (stereo not given)
77	i	Cc1cc(C)n(-c2ccc(=O)n(CC(=O)NCc3ccc4c(c3)OCO4)n2)n1
78	i	N#CCOc1ccc2c(c1)O/C(=C\c1cc(Br)cc3c1OCOC3)C2=O
79	i	CC(C)NCC(O)COc1cccc2[nH]ccc12 (stereo not given)
80	i	Cc1cccc(Cn2c(N3CCOCC3)nc3c2c(=O)n(C)c(=O)n3C)c1
81	i	O=C(NCC1(O)CCc2ccccc2C1)c1ccccc1C(F)(F)F (stereo not given)
82	i	Cc1cn2c3c(=O)n(Cc4ccccc4)c(=O)n(C)c3nc2n1C(C)c1ccccc1 (stereo not given)
83	i	Cc1ccc(C)c(-n2ncc3c2ncn2nc(C4CCCCC4)nc32)c1
84	i	Cc1cccc(S(=O)(=O)c2c(N)n(/N=C\c3ccccn3)c3nc4ccccc4nc23)c1
85	i	CC(C)(O)c1nc2ccccc2n1CCCOc1ccccc1
86	i	CCCC(=O)N1N=C(c2cccc(NS(=O)(=O)CC)c2)CC1c1ccco1 (stereo not given)
87	i	O=C(c1ccc2nsnc2c1)N1CCC(COCc2ccccc2)CC1
88	i	COc1ccc(NC(=O)c2cn(Cc3ccc(NC(=O)c4cccc(OC)c4)cc3)cn2)cc1
89	i	COc1ccc(S(=O)(=O)NCCn2nc(-c3ccc(F)cc3)ccc2=O)cc1OC
90	i	COc1ccc(SCC2CCN(C(=O)c3cccc(C#N)c3)CC2)cc1
91	i	COc1ccc(NC(=O)C(=O)NCCCn2ccnc2)cc1OC
92	i	O=C(NCC#CCN1CCOCC1)c1cc(-c2ccc(F)cc2)n[nH]1
93	i	COc1cccc(-n2c(C)c(C)n3c4c(=O)n(CCCO)c(=O)n(C)c4nc23)c1
94	i	CCOC(=O)C(CC)Sc1nnc(N2CCN(c3ccccc3)CC2)s1 (stereo not given)
95	i	CCc1ccc2c(c1)c(=O)c(S(=O)(=O)c1ccc(C)cc1)cn2CC(=O)Nc1cccc(OC)c1
96	i	O=C(c1ccc2c(=O)n(Cc3cccc(Br)c3)c(=S)[nH]c2c1)N1CCCC1
97	i	COc1cccc(C(=O)N(CCN(C)C)c2nc3c(S(C)(=O)=O)cccc3s2)c1
98	i	COc1ccc2ncc(C#N)c(N3CCC(C(=O)NCc4ccc(Cl)cc4)CC3)c2c1
99	i	COc1cc(NC(=O)Nc2ccc(Cl)c(N3CCCS3(=O)=O)c2)cc(OC)c1
100	i	COc1cccc2sc(N(C)CC(=O)N(C)OC)nc12

Further entries follow:
cpd	GIRK2 act	structure
101	i	O=C(O)CC12CC3CC(CC(O)(C3)C1)C2
102	i	Cc1cccc(N2CCn3c2nc2c3c(=O)n(CCN3CCOCC3)c(=O)n2C)c1C
103	i	COc1ccc2nc(N(CCCn3ccnc3)C(=O)c3ccc(OC)c(OC)c3)sc2c1
104	i	O=C(NCCCc1ccccc1)C(=O)NCCc1ccccc1
105	i	CN(CCOc1ccc(CC2SC(=O)NC2=O)cc1)c1ccccn1 (stereo not given)
106	i	COc1ccc(CCNC(=O)Cn2nc(-c3cccs3)ccc2=O)cc1
107	i	COc1ccc(CCC(=O)Nc2cc(N3CCN(Cc4ccccc4)CC3)ncn2)cc1
108	i	CN(C)CC1CSCCCN1C(=O)Cn1c(=O)oc2ccccc21 (stereo not given)
109	i	COCCCNC(=O)CCCn1c(=O)[nH]c2ccccc2c1=O
110	i	Cc1ccccc1CC(=O)NC1CCN(c2ccc(-c3ccccc3F)nn2)C1 (stereo not given)
111	i	Cc1nc(-c2ccccc2Cl)sc1CNC(=O)c1snnc1C
112	i	O=C(NCc1ccc(C(O)c2cccs2)s1)c1cc(Cl)ccc1Cl (stereo not given)
113	i	CNC(=O)Cn1nc(-c2ccc(F)cc2)c2sc(N3CCCC3)nc2c1=O
114	i	CCOc1ccc(C2c3c(oc4cc(OC)ccc4c3=O)C(=O)N2CCN(C)C)cc1 (stereo not given)
115	i	O=C(NCc1ccc2c(c1)OCO2)c1ccc2nccnc2c1
116	i	O=C1NC(=NCCc2ccccc2Cl)S/C1=C\c1ccc2ncccc2c1
117	i	Cn1c2ccccc2c(=O)c2c(=O)n(Cc3ccco3)c(CN3CCCCC3)nc21
118	i	CSCCC(C)(O)CNC(=O)Nc1ccc2c(c1)OCO2 (stereo not given)
119	i	COC(=O)c1cn(Cc2cccc(F)c2)nc1S(=O)(=O)N1CCc2ccccc2C1
120	i	CS(=O)(=O)c1ccc(Nc2nc(C(=O)N3CCCC3)cs2)cc1
121	i	COC(=O)c1ccc(C(=O)NCC2CCN(Cc3cccs3)CC2)cc1
122	i	COc1ccccc1-c1c(C)oc2cc(OC(=O)c3ccco3)ccc2c1=O
123	i	Cn1nc(C(=O)N2CCN(CCn3cccn3)CC2)ccc1=O
124	i	COc1ccc(-c2[nH]ncc2-c2ccc(Cl)cc2)c(O)c1
125	i	Cc1cc(C(=O)N2CCCC(c3nnc(Cc4ccc(F)cc4)o3)C2)no1 (stereo not given)
126	i	Cc1ccc(OCC(O)Cn2c(N(C)Cc3ccccc3)nc3c2c(=O)n(C)c(=O)n3C)cc1C (stereo not given)

Rewritten bar-delimited: entries from further up
nr | SMILES | GIRK2 act
117 | Cn1c2ccccc2c(=O)c2c(=O)n(Cc3ccco3)c(CN3CCCCC3)nc21 | i
118 | CSCCC(C)(O)CNC(=O)Nc1ccc2c(c1)OCO2 (stereo not given) | i
119 | COC(=O)c1cn(Cc2cccc(F)c2)nc1S(=O)(=O)N1CCc2ccccc2C1 | i
120 | CS(=O)(=O)c1ccc(Nc2nc(C(=O)N3CCCC3)cs2)cc1 | i

From PubChem BioAssay
